Ecoli rRNA inh = reduced GFP signal of wild-type E. coli, primary screen, bacterial rRNA inhibitor project, GFP/RFP fluorescence, OD600, single point. E. coli WT GFP vs humanized-ribosome RFP mutants, 24 h; active compounds read low; DMSO median 0, no signal -100. GFP signal change (wild-type ribosome), % (concentration not given with the values). actives 1.6% (n = 350,000). AID 720706, 2013;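 active means significant combined selectivity score with lowered wild-type GFP, culture density cut under 30%, mutant RFP and density less affected; inactive means any of these conditions unmet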; further: one replicate is shown; some compounds called inactive have numbers as strong as hits
Ecoli rRNA inh OD600 = recorded beside Ecoli rRNA inh, whose call it bears; OD600 change, %; measured here: OD600 growth;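 optical density of the mix in the first replicate; 0 = DMSO median and -100 = no signal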
Ecoli rRNA inh RFP = second read-out of Ecoli rRNA inh, no call of its own (marks repeat the call); RFP signal change, %; measured here: RFP humanized mutant strains;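 first replicate; 0 = DMSO median and -100 = no signal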
Numbers without * were called inactive; & = joins results of further samples.

SMILES | Ecoli rRNA inh | Ecoli rRNA inh OD600 | Ecoli rRNA inh RFP
CC(C)NC(=O)N(C)C[C@@H]1Oc2c(NS(=O)(=O)c3cccs3)cccc2C(=O)N([C@@H](C)CO)C[C@@H]1C | 1.4 | 0.7 | 0.8
COc1ccccc1S(=O)(=O)N1CC[C@@H]2[C@@H](CO)Nc3ccc(-c4cccc(C#N)c4)cc3[C@@H]21 | -9.5 | -11.4 | 7.6
C[C@@H]1CN([C@@H](C)CO)C(=O)c2cccc(NC(=O)C3CCCCC3)c2O[C@@H]1CN(C)Cc1ccc(-c2ccccc2)cc1 | -6.5 | -2.5 | 5.2
CCCNC(=O)Nc1ccc2c(c1)C(=O)N(C)C[C@H](OC)[C@H](C)CN(Cc1ccc(-c3ccccn3)cc1)[C@@H](C)CO2 | -1.6 | -8.4 | 6.3
C[C@H]1CN([C@@H](C)CO)S(=O)(=O)c2ccc(-c3ccc(F)cc3)cc2O[C@@H]1CN(C)C(=O)Nc1ccc(F)cc1 | -0.4 | -22.1 | 8.8
C[C@@H]1CN([C@@H](C)CO)S(=O)(=O)c2ccc(-c3ccc(F)cc3)cc2O[C@@H]1CN(C)C(=O)C1CC1 | -2.0 | -8.3 | -1.5
C/C=C/c1ccc([C@@H]2[C@@H](CN(C)C(=O)CC)N(S(C)(=O)=O)[C@H]2CO)cc1 | -1.6 | -2.7 | 0.7
C[C@@H]1CN([C@H](C)CO)S(=O)(=O)c2ccc(-c3cccnc3)cc2O[C@@H]1CN(C)Cc1cccnc1 | -2.6 | -5.8 | -3.0
COc1cccc(-c2ccc3c(c2)[C@H]2[C@H](CCN2S(=O)(=O)C2=NC(C)C=N2)[C@@H](CO)N3C)c1 (some centres undefined) | 3.8 | 3.1 | 6.2
CCCNC(=O)N1[C@H](CO)[C@H](c2ccc(C3=CCCC3)cc2)[C@@H]1CNC(=O)CC | -9.5 | -0.7 | 0.3
CCC(=O)N1[C@H](CN(C)C(C)=O)[C@H](c2ccc(-c3cccc(F)c3)cc2)[C@@H]1CO | 1.1 | 11.4 | -2.8
COc1ccccc1NC(=O)N1C[C@H]2[C@@H](c3ccccc31)[C@@H](CO)N2C(=O)c1ccccc1 | 1.5 | 13.0 | -1.1
CCC(=O)Nc1ccc2c(c1)C(=O)N(C)C[C@H](OC)[C@@H](C)CN(Cc1ccccc1)[C@@H](C)CO2 | 1.2 | -8.7 | -0.4
COc1cccc(NC(=O)N(C)C[C@H]2OCc3cnnn3CCCC(=O)N([C@@H](C)CO)C[C@H]2C)c1 | -0.9 | 4.2 | -0.4
CC(C)[C@H]1C(=O)N[C@@H](c2ccccc2)CC=CC[C@H](C)Oc2ccccc2C(=O)N1C (mixture of isomers) | -8.6 | -21.3 | 0.9
CC(C)C#Cc1ccc2c(c1)O[C@@H](CN(C)C)[C@@H](C)CN([C@H](C)CO)S2(=O)=O | 2.1 | 8.7 | -2.3
C[C@@H]1CN([C@H](C)CO)C(=O)c2cc(NC(=O)CCCCCC(=O)Nc3ccccc3N)ccc2O[C@@H]1CN(C)C(=O)Nc1ccccc1 | 0.0 | 2.4 | -1.5
C/C=C/c1ccc([C@@H]2[C@@H](CO)N(C(=O)NCCC)[C@H]2CNC(=O)C2CCC2)cc1 | -9.1 | -17.9 | 5.0
N#C[C@H]1[C@H](c2ccc(-c3cncnc3)cc2)[C@H](CO)N1C(=O)CN1CCOCC1 | 12.8 | 30.8 | 2.4
COCC(=O)Nc1ccc2c(c1)OC[C@H](C)N(C(=O)CC1CC1)C[C@@H](C)[C@H](OC)CN(C)C2=O | 1.6 | 2.3 | 1.2
O=C(CC1CC1)N1CC[C@H]2[C@H](CO)Nc3ccc(-c4ccc(F)cc4)cc3[C@H]21 | -13.2 | -19.2 | 0.0
CC(C)NC(=O)N(C)C[C@H]1Oc2ncc(C#CC3CCCCC3)cc2C(=O)N([C@@H](C)CO)C[C@H]1C | 5.8 | 3.1 | -0.9
C[C@@H]1CCCCO[C@@H](CN(C)Cc2ccc3c(c2)OCO3)[C@@H](C)CN([C@@H](C)CO)C(=O)c2cc(N(C)C)ccc2O1 | -1.0 | 3.4 | 0.0
CNC[C@@H]1Oc2cc(C3=CCCC3)ccc2S(=O)(=O)N([C@@H](C)CO)C[C@H]1C | 2.9 | -0.7 | 6.5
CCC(=O)N1C[C@@H](C)[C@@H](OC)CN(C)C(=O)c2cc(NC(=O)c3cc(C)on3)ccc2OC[C@@H]1C | 2.1 | -6.4 | -1.0
C=C(C)C[C@H]1CCn2nncc2COCCNC1=O | 3.9 | 7.7 | -5.2
C[C@@H]1CN([C@@H](C)CO)C(=O)c2cc(-c3ccncc3)cnc2O[C@H]1CN(C)C(=O)C1CCC1 | 0.6 | 3.1 | -0.1
CC(C)NC(=O)N(C)C[C@@H]1Oc2ccccc2CC(=O)N(C)C[C@@H]1C | 1.1 | 3.8 | -0.2
Cc1ccc(S(=O)(=O)Nc2cccc3c2O[C@@H](CN(C)C(=O)Nc2cccc4ccccc24)[C@H](C)CN([C@H](C)CO)C3=O)cc1 | 0.4 | 1.1 | 0.6
CCCNC(=O)N1CC(=O)N2[C@H](CO)[C@@H](c3ccc(C#Cc4ccccc4)cc3)[C@@H]2C1 | -54.5 | -71.8 | -13.2

Profiles, quoted from the list:
Profile of `C[C@@H]1CCCCO[C@@H](CN(C)Cc2ccc3c(c2)OCO3)[C@@H](C)CN([C@@H](C)CO)C(=O)c2cc(N(C)C)ccc2O1` → Ecoli rRNA inh = -1.0; Ecoli rRNA inh OD600 = 3.4; Ecoli rRNA inh RFP = 0.0
Profile of `C[C@@H]1CN([C@H](C)CO)C(=O)c2cc(NC(=O)CCCCCC(=O)Nc3ccccc3N)ccc2O[C@@H]1CN(C)C(=O)Nc1ccccc1` → Ecoli rRNA inh = 0.0; Ecoli rRNA inh OD600 = 2.4; Ecoli rRNA inh RFP = -1.5

Going on with the list:
SMILES | Ecoli rRNA inh | Ecoli rRNA inh OD600 | Ecoli rRNA inh RFP
C[C@@H]1CN([C@@H](C)CO)S(=O)(=O)c2ccc(-c3ccncc3)cc2O[C@H]1CN(C)C(=O)C1CCC1 | -1.2 | -0.6 | -4.4
CS(=O)(=O)N1[C@@H]2CN(CC(F)(F)F)C[C@H]1C2c1ccccc1 (some centres undefined) | -3.8&-0.3 | -6.5&3.3 | 0.8&6.0
CN1C[C@@H]2[C@H](c3ccccc31)[C@@H](CO)N2C(=O)C1CCCC1 | -1.0 | -9.3 | -0.7
COc1ccccc1-c1ccc([C@@H]2[C@H](CO)N3CCCCN(C(=O)NC4CCCC4)C[C@@H]23)cc1 | 6.0 | 5.6 | 0.7
CC(C)C#Cc1ccc([C@H]2[C@@H](CO)N3C(=O)CN(C(=O)Cc4cccnc4)C[C@H]23)cc1 | 2.2 | 7.9 | -1.2
CC(C)NC(=O)NCC[C@@H]1CC[C@H](NC(=O)Nc2ccccc2)[C@@H](CO)O1 | 0.9 | 5.5 | -1.0
CCCC#Cc1cnc2c(c1)C(=O)N([C@H](C)CO)C[C@@H](C)[C@@H](CN(C)C(=O)C1CCCCC1)O2 | 7.4 | 5.7 | -0.4
C[C@@H]1CN([C@H](C)CO)C(=O)Cc2cc(NC(=O)NC3CCCCC3)ccc2O[C@H]1CN(C)Cc1ccc(C(=O)Nc2ccccc2N)cc1 | 0.3 | 1.0 | 2.1
C[C@@H]1CN([C@H](C)CO)S(=O)(=O)c2ccc(-c3ccncc3)cc2O[C@H]1CN(C)Cc1ccncc1 | -0.3 | 1.5 | -0.7
CC(=O)N(C)C[C@@H]1Oc2ccccc2CC(=O)N(C)C[C@@H]1C | -0.7 | -4.4 | -0.3
C[C@@H]1CN([C@H](C)CO)C(=O)c2cc(-c3cccnc3)cnc2O[C@H]1CN(C)C(=O)C1CCCCC1 | -0.3 | -4.2 | -3.5
C[C@@H]1CN([C@H](C)CO)S(=O)(=O)c2ccc(Br)cc2O[C@H]1CN(C)C(=O)C1CCC1 | -6.3 | -4.8 | 0.7
COc1ccc2c3c([nH]c2c1)[C@@H](CO)N(S(=O)(=O)c1cn(C)cn1)CC31CCN(Cc2ccccc2)CC1 | -1.9 | 6.3 | -3.5
COc1ccc(S(=O)(=O)Nc2cccc3c2O[C@H](CN(C)C(=O)Nc2cccc4ccccc24)[C@@H](C)CN([C@@H](C)CO)C3=O)cc1 | 1.3 | -4.9 | 2.7
COc1ccccc1-c1ccc2c(c1)O[C@@H](CN(C)CC1CC1)[C@@H](C)CN([C@@H](C)CO)S2(=O)=O | 2.8 | 3.2 | 2.7

New compounds follow
Fields – Ecoli rRNA inh	Ecoli rRNA inh OD600	Ecoli rRNA inh RFP
> CCC(=O)Nc1ccc2c(c1)C(=O)N(C)C[C@@H](OC)[C@@H](C)CN(C(=O)CN(C)C)[C@@H](C)CO2
    3.0	5.7	1.5
> O=C1[C@@H](Cc2ccc(C(F)(F)F)cc2)CCn2cc(nn2)COC[C@@H]2CCCCN12
    -2.0	-1.3	0.6
> C/C=C/c1ccc([C@H]2[C@@H](CO)N(C(=O)CC)[C@H]2CN(C)C(=O)C2CC2)cc1
    0.2	3.1	-1.1
> CC(C)NC(=O)N1[C@H](CO)[C@H](c2ccccc2)[C@H]1CNC(=O)CN(C)C
    0.4	9.3	-1.6
> C[C@H](CO)N1C[C@H](C)[C@@H](CN(C)C(=O)Cc2ccccc2)OCCCC[C@H](C)Oc2ccc(NS(C)(=O)=O)cc2C1=O
    -3.3	3.7	-0.3
> CCCNC(=O)Nc1ccc2c(c1)C(=O)N(C)C[C@H](OC)[C@@H](C)CN(CCC(F)(F)F)[C@@H](C)CO2
    -2.6	-4.2	0.0
> CCC(=O)N1C[C@@H](C)[C@@H](OC)CN(C)C(=O)c2cc(NC(=O)c3cc(C)on3)ccc2OC[C@H]1C
    -0.7	-3.7	-0.9
> C[C@@H]1CN(C)C(=O)c2cccc(NS(C)(=O)=O)c2O[C@@H]1CN(C)S(C)(=O)=O
    -0.3	2.4	-1.0
> O=C(C1CCCC1)N1[C@@H](CO)[C@@H]2c3ccccc3NC[C@@H]21
    -0.1	0.4	2.8
> Cc1ccc(S(=O)(=O)Nc2ccc3c(c2)CC(=O)N([C@@H](C)CO)C[C@@H](C)[C@@H](CN(C)Cc2ccc(C(=O)O)cc2)O3)cc1
    2.2	0.4	0.4
> CO[C@@H]1CN(C)C(=O)c2cc(NC(=O)c3cccc(F)c3)ccc2OC[C@@H](C)N(C(C)=O)C[C@H]1C
    0.8	-5.3	-1.3
> C[C@H]1CN([C@@H](C)CO)C(=O)Cc2cc(NS(=O)(=O)c3ccc(F)cc3)ccc2O[C@@H]1CN(C)Cc1ccc(Cl)c(Cl)c1
    -0.5	-0.3	6.8
> C[C@@H]1CN([C@@H](C)CO)C(=O)c2cc(C#Cc3ccccn3)cnc2O[C@@H]1CN(C)Cc1ccccc1
    4.5	3.9	2.3
> CC(=O)N1C[C@@H]2C(c3ccccc3)[C@H](C1)N2Cc1ccc(F)cc1 (some centres undefined)
    -0.9&-7.4	0.0&-6.5	-1.0&2.2
> CC(C)[C@@H]1CC=CC[C@@H](C)Oc2ccccc2C(=O)N(C)[C@H](C)C(=O)N1 (mixture of isomers)
    -59.0	-74.3	-15.2
> COc1ccc2c3c(n(C)c2c1)[C@H](CO)N(C(=O)Cc1ccccn1)CC31CCN(CC2CCOCC2)CC1
    2.8	18.9	-1.4
> CCC(=O)N1CC(=O)N2[C@H](C1)[C@H](c1ccc(C#CC(C)C)cc1)[C@@H]2CO
    0.1	-3.1	1.0
> COc1ccc(OC(=O)N(C)C[C@@H]2OCc3cn(nn3)CCCC(=O)N([C@H](C)CO)C[C@@H]2C)cc1
    0.2	6.2	-1.4
> C[C@H](CO)N1C[C@H](C)[C@@H](CN(C)C(=O)C2CC2)Oc2cc(-c3cncnc3)ccc2S1(=O)=O
    6.2	5.9	-1.4
> C[C@H]1CN(C)C(=O)c2cccnc2O[C@@H]1CN(C)S(C)(=O)=O
    -0.8	4.7	-0.8
> C[C@@H]1CCn2nncc2COC[C@H]2CCCN2C1=O
    -1.9	-10.1	2.1
> COc1cccc(C(=O)Nc2ccc3c(c2)C(=O)N(C)[C@H]2CC[C@@H](CC(=O)NCc4ccccc4F)O[C@@H]2CO3)c1
    -3.2	-3.1	0.3
> C[C@@H]1CN([C@@H](C)CO)S(=O)(=O)c2ccc(-c3ccccc3)cc2O[C@H]1CN(C)C(=O)C1CC1
    -6.7	-20.0	-3.7
> CC(=O)N1[C@@H](CO)[C@H](c2ccc(-c3ccc(F)cc3)cc2)[C@@H]1CNC(=O)C1CC1
    -2.6	0.1	1.8
> COc1ccc(NC(=O)Nc2cccc3c2O[C@@H](CN(C)Cc2ccc(Cl)c(Cl)c2)[C@H](C)CN([C@@H](C)CO)C3=O)cc1
    -3.9	-3.2	1.3
> COc1ccc2c3c([nH]c2c1)[C@H](CO)N(C(=O)c1ccncc1)CC31CN(C(=O)NC(C)C)C1
    4.2	14.5	-4.8
> CNC[C@@H]1Oc2cc(C#CCOC)ccc2S(=O)(=O)N([C@H](C)CO)C[C@H]1C
    0.2	-0.3	0.3
> Cc1noc(C)c1NC(=O)Nc1cccc2c1O[C@H](CN(C)C(=O)Nc1ccc(F)cc1)[C@H](C)CN([C@H](C)CO)C2=O
    0.0	1.1	-3.4
> C[C@@H]1CN([C@@H](C)CO)C(=O)c2cccc(NC(=O)c3ccncc3)c2O[C@@H]1CN(C)CC1CC1
    3.2	8.5	0.6
> C[C@H]1CN([C@@H](C)CO)C(=O)c2cc(C#CC(C)(C)O)cnc2O[C@@H]1CN(C)Cc1cccc(F)c1
    -2.7	-14.2	-1.5
> CO[C@@H]1CN(C)C(=O)c2cc(NC(=O)c3ccccc3)ccc2OC[C@@H](C)N(CC2CC2)C[C@H]1C
    -2.7	4.8	-1.3
> COc1ccc(CN(C)C[C@@H]2Oc3ccc(NC(=O)Nc4ccc(C(F)(F)F)cc4)cc3C(=O)N([C@H](C)CO)C[C@H]2C)cc1
    -28.9	-37.3	13.4

Only part of the results is shown (hit frequency here may not be typical).
